Screening results as filed in PubChem.
RE007 growth inh = less growth of the S. pombe RE007 Vpr strain; S. pombe RE007 Vpr strain, BacTiter-Glo ATP luminescence, 24 h; control for the full effect not named in the record; Potency, µM (highest dose often 92.2 µM), inactives show at the highest dose activity change, negative = less growth; actives 0.21% (n = 360,000); active = well fitted falling curve with a large enough effect; inconclusive = small, poorly fitted or top-dose-only effect; inactive = no such curve, though single readings can be large or run the other way;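 further: on the % scale 0 is the no-effect control and ±100 the full control effect; nearly all actives have a fitted effect of over 50% in size; the assay follows cell death caused by Vpr and the record does not say whether a fall means rescue or toxicity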
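Fission yeast RE007 carrying one integrated HIV-1 vpr copy, seeded at OD 0.01 in PMG+AL medium with 23 nL pinned compound. Grown 24 h at 30 degrees; viability read by BacTiter-Glo luminescence after 5 min.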
SARS PLP yeast = SARS-CoV PLP inhibition in yeast | actives 0.19% (n = 330,000) | S. cerevisiae expressing SARS-CoV PLpro, growth rescue; control for the full effect not named in the record | Potency, µM (series often up to 32.9 µM), inactives show at the top dose activity, positive = growth rescue; further: 0% is about no effect; nearly all actives have a fitted effect of over 55% in size; growth read by luminescence after 48 h
Cruzain noTriton = inhibitors of Trypanosoma cruzi cruzain without detergent. P25779. purified cruzain, Z-FR-AMC fluorescence, no detergent. Potency, µM, for the others: max response, negative = inhibition, hits mostly inhibitors. actives 2.3% (n = 200,000); active means well fitted curve in the direction sought with a large enough effect; inconclusive means small, poorly fitted or top-dose-only effect, or another doubt; inactive means no such curve, though single readings can be large; an effect the other way counts as inactive or inconclusive;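 further: plate controls were enzyme without inhibitor for no effect and buffer without enzyme for full effect; nearly all actives have a fitted effect of over 40% in size; top concentration of the series not given in the record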
Target sequence (P25779 123-467 limits assumed): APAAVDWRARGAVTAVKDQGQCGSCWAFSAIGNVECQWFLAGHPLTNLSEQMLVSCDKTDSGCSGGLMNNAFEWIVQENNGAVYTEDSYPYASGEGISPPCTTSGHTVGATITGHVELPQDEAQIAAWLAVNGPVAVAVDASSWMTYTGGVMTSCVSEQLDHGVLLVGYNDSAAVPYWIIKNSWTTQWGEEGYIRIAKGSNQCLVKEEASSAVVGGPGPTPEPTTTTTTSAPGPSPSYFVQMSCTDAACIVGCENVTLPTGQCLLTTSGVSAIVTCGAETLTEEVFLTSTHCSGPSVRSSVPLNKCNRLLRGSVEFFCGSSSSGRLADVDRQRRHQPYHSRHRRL
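Purified cruzain at 1.5 nM, pre-incubated 15 min with compound at room temperature in 100 mM sodium acetate pH 5.5, 5 mM DTT, 0.00005% Triton X-100. Reaction started with 2 uM Z-FR-AMC; AMC fluorescence increase over 60 s gives rate.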
Lassa entry inh = blocks Lassa virus binding to or entry into cells; Lassa virus pseudotype entry inhibition, cell reporter; control for the full effect not named in the record; Potency, µM (top dose mostly 37.9 µM), without a hit: at the top dose activity change, negative = inhibition, usual class: inhibitors; actives 1.2% (n = 300,000); AID 540256; active means well fitted inhibition curve with a large enough effect; inconclusive means small, poorly fitted or top-dose-only effect, or effect the other way; inactive means flat fitted curve, though single readings scatter; tested in HEK293 cells; further: on the % scale 0 is the no-effect control and ±100 the full control effect; nearly all actives have a fitted effect of over 50% in size; luciferase read-out
MARV entry inh = blocks Marburg virus binding to or entry into cells; Marburg virus pseudotyped entry inhibition, cell reporter; control for the full effect not named in the record; about a third of the inactives were read at about 46 µM; actives 1.8% (n = 300,000); Potency, µM (top dose mostly 37.8 µM), for the others: at the highest dose activity change, negative = inhibition, most hits filed as inhibitors; active = well fitted inhibition curve with a large enough effect; inconclusive = small, poorly fitted or top-dose-only effect, or effect the other way; inactive = flat fitted curve, though single readings scatter; tested in HEK293 cells; about a fifth of its hits are not listed in these tables; further: on the % scale 0 is the no-effect control and ±100 the full control effect; luciferase read-out
2A StopGo = lowers the luciferase signal of an FMDV 2A StopGo reporter | human cells with a luciferase reporter of 2A StopGo recoding; control for the full effect not named in the record | Potency, µM (titrated, usually from 57.9 µM), without a hit: top-dose signal change, negative = less light | actives 1.2% (n = 410,000); active = well fitted falling curve with a large enough effect; inconclusive = small, poorly fitted or top-dose-only effect; inactive = no such curve, though single readings can be large or run the other way; tested in HEK293T cells; further: on the % scale 0 is the no-effect control and ±100 the full control effect; nearly all actives have a fitted effect of over 45% in size; luciferase light after 4 h
Cruzain inh Det = cruzain (T. cruzi) inhibition with detergent. purified cruzain, Z-FR-AMC fluorescence, 0.01% Triton. actives 0.43% (n = 200,000). Potency, µM, for the others: max response, negative = inhibition, usual class: inhibitors. P25779; active means well fitted curve in the direction sought with a large enough effect; inconclusive means small, poorly fitted or top-dose-only effect, or another doubt; inactive means no such curve, though single readings can be large; an effect the other way counts as inactive or inconclusive;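 further: plate controls were neutral wells for no effect and buffer without enzyme for full effect; nearly all actives have a fitted effect of over 40% in size; top concentration of the series not given in the record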
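15 min RT preincubation of 1.5 nM cruzain with compound, then 2 uM Z-FR-AMC added; kinetic AMC fluorescence, 60 s delta. Triton X-100 0.01%, pH 5.5.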
NS1 function inh = influenza NS1 inhibition; S. cerevisiae slowed by influenza A NS1, growth recovery by OD600; Potency, µM (doses to about 46.1 µM), without a hit: at the top dose activity, positive = more growth; actives 0.4% (n = 270,000); further: actives are rising curves; nearly all actives have a fitted effect of over 50% in size
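S. cerevisiae expressing influenza A NS1, grown in glucose, washed, then diluted 1:100 into pH 6.0 -URA galactose medium with 23 nl compound. Growth recovery read as OD600; NS1-free strain serves as control.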
Numbers without * were called inactive; u = inconclusive; x = no result given; & = joins results of further samples; [ ] = dose if it differs, or a comment. Unless noted, the call rests on the fitted dose curve; in most records, active means well fitted rising curve with a large enough effect; inconclusive means small, poorly fitted or top-dose-only effect; inactive means no such curve, though single readings can be large or run the other way. Potency means the concentration at half of the fitted maximal effect.

SMILES	RE007 growth inh	SARS PLP yeast	Cruzain noTriton	Lassa entry inh	MARV entry inh	2A StopGo	Cruzain inh Det	NS1 function inh
CCC(C)NC(=O)c1ccc2nc(-c3ccc(OC)c(OC)c3)c(-c3ccc(OC)c(OC)c3)nc2c1 (stereo not given)	8%	1%	x	x	x	-2%	x	0%
CN(Cc1ccccc1)C(=O)c1c[nH]c2ccc(S(=O)(=O)N3CCOCC3)cc2c1=O	-13%	u	-2%	2%&2%	19%&23%	9%	-2.3%	-6%
COCCNC(=O)COc1ccc(Br)cc1Cl	-10%	12%[6.58 µM]	-16%	12%	17%	10%	-3.1%	-6%
CCOC(=O)CCc1c(C)c2c(C)nn(-c3ccccc3)c2[nH]c1=O	2%	26%	0%	x	x	-21%	-6.1%	-27%
N=c1c(C(=O)NCCN2CCOCC2)cc2c(=O)n3ccccc3nc2n1CCc1ccccc1	-3%	-4%	x	-10%	u	-14%	x	-2%
O=C(Nc1ccc(Cl)cc1C(=O)NCCN1CCOCC1)c1ccc(Cl)cc1Cl	11%	9%	-5%	-16%	5%	-2%	-7.6%	-6%
CCCOc1ccc(C2C(C(=O)OC)=CN(CCOC)C=C2C(=O)OC)cc1	-6%	9%	u	u	-16%	-6%	-24%	-3%
Cn1c(=O)c2[nH]c(-c3ccccc3O)nc2n(C)c1=O	x	2%	10%	x	0%	x	1.2%	11%
CCN(Cc1ccccc1)C(=O)c1cc(S(=O)(=O)N2CCOCC2)ccc1N1CCCC1	-7%	-3%	x	u	-14%	-11%	x	x
Cc1cccc(OCC(=O)Nc2ccc(N3CCN(C(=O)c4ccccc4)CC3)cc2)c1	1%	14%	6%	-11%	u	28µM*	-5.8%	25%
CCc1nc2c(c(=O)c3ccccc3n2C)c(=O)n1C1CCCCCC1	-12%	-19%	-22%	u	2%	-8%	-0.3%	-5%
C=CCN(C(=O)c1csnn1)C(C(=O)NC1CCCCC1)c1ccc(F)cc1 (stereo not given)	0%	-4%	x	-25%	-1%[46.1 µM]	-15%	x	-7%
CCC(C)(C)NC(=O)C(c1ccc(OC)cc1)N(C(=O)CCC(=O)Nc1cc(C)on1)c1ccc2c(c1)OCO2 (stereo not given)	-22%	6%	x	-22%	u	-3%	x	-10%
CC(NC(=O)c1ccc(F)cc1)C1CC2CCC1C2 (stereo not given)	4%	-3%	x	u	-3%[46.1 µM]	-1%	x	-23%
S=c1[nH]nc(-c2ccc3ccccc3n2)o1	-12%	4%	-3%	31%	21%	8%	-4.1%	-3%
COCCCNC(=O)Cn1c(=O)n(-c2ccc(Cl)cc2)c(=O)c2c3c(sc21)CCCCC3	x	x	3%	1%[46.1 µM]	12%[46.1 µM]	-13%	-2.5%	x
CCC(C)(C)NC(=O)C(c1ccncc1)N(C(=O)c1sc(C)nc1C)c1ccc(C)cc1 (stereo not given)	-9%	1%	x	x	x	2%	x	0%
CCC(C)C(NC(N)=O)C(=O)Nc1ccc(C)c(Cl)c1 (stereo not given)	x	5%	6%	-11%	19%	-9%	0.1%	-1%
Cc1cc(C#N)c(C)n1-c1cc(C(F)(F)F)ccc1N1CCOCC1	12%	-8%	4%	-17%	u	-15%	-7.1%	-52%
C=CCNC(=O)c1ccc2nccnc2c1	-13%	0%	-3%	3%	10%	x	-2.8%	8%
CCOc1ccc(-c2nc(CSCC(=O)N3CCN(c4cccc(OC)c4)CC3)c(C)o2)cc1	9%	-14%	u	x	2%	20µM*	-1.0%	-38%
COc1ccccc1N1CCN(C(=O)c2ccc3c(=O)n(Cc4ccco4)c(=S)[nH]c3c2)CC1	-8%	5%	-1%	-16%	-21%&-21%	u	-5.1%	-36%
O=[N+]([O-])c1cc([N+](=O)[O-])c(Oc2ccccc2F)cc1NN1CCCCC1	7%	5%	x	x	x	-18%	x	3%
Cc1ccc(C(=O)Nc2ccc(OCc3cc(=O)n4c(C)csc4n3)cc2)cc1	x	x	0%	-19%[46.1 µM]	9%[46.1 µM]	-2%	-1.1%	x
COc1ccc(-c2cn3ccc4ccccc4c3n2)cc1	-14%	-17%	-3%	u	-20%	-16%	-18%	3%
COc1cc(/C=C2/SC(=O)NC2=O)ccc1OCc1ccccc1	-8%	-4%	x	x	x	23%	x	1%
CCC(C)NC(=O)CSc1nc2c(sc3ccccc32)c(=O)n1CCc1ccccc1 (stereo not given)	x	x	5%	0%[46.1 µM]	x	-16%	4.3%	x
Cc1nc2nc(SCc3ccccc3)[nH]n2c(=O)c1CCC(C)C	-3%	1%	x	x	x	-1%	x	-3%
COc1ccc(OC(=O)Cc2cccc3ccccc23)cc1	-15%	-10%	x	x	x	-4%	x	-36%
CCCCOc1ccc(NC(=O)CSCC(=O)OCC)cc1	7%	0%	1%	-2%	u	7%	2.7%	-48%
O=C(COc1ccccc1F)OCC(=O)c1ccc([N+](=O)[O-])cc1	1%	3%	x	24%	2%	-15%	x	x
CCN(Cc1nc(-c2cccc(C)c2)no1)S(=O)(=O)c1ccc(C)cc1	x	x	-3%	2%[46.1 µM]	11%[46.1 µM]	-29%	-5.4%	x
CCOC(=O)c1ccc2nc3c(cc2c1)CCS3	-9%	-8%	9%	-2%	u	49%[activator]	-1.5%	-76%
CC1CCC(C(=O)NC(C(=O)NCc2ccccn2)C(C)C)CC1 (stereo not given)	22%	-7%	3%	-1%	7%	-18%	0.6%	15%
O=C(CS(=O)CC(=O)N(CC(=O)NC1CCCC1)C1CCCCC1)Nc1ccc(F)cc1 (stereo not given)	-21%	-4%	29%	26%[14.3 µM]	8%	11%	0.5%	-5%
O=C1C=C(NCCNc2c(F)c(F)c(CO)c(F)c2F)CCC1	-5%	1%	2%	1%	-9%	-15%	4.0%	0%
O=C(NCc1ccccc1)c1cc[n+](CC(=O)c2cccs2)cc1	0%	0%	x	-11%[46.1 µM]	5%[46.1 µM]	10%	x	9%
O=C(NCc1ccc2c(c1)OCO2)c1ccc2snnc2c1	-1%	-3%	8%	12%	-5%&-5%	3%	-3.8%	-59%
CC(C)(C)NC(=O)C1CCN(c2nc3ccccc3nc2C(F)(F)F)CC1	x	x	1%	0%[46.1 µM]	x	-5%	0.7%	x
O=C(O)CCC(=O)N1N=C(c2c(-c3ccccc3)c3cc(Cl)ccc3[nH]c2=O)CC1c1cccs1 (stereo not given)	14%	-5%	4%	2%	-15%	-5%	-6.3%	10%
CC(=O)c1cccc(NC(=S)NC(=O)c2ccc(C)cc2)c1	-9%	0%	x	u	-18%[46.1 µM]	50%[activator]	x	0%
COC(=O)c1cccc(NC(=S)N2CCOCC2)c1	29%	0%	x	-8%	26%[46.1 µM]	29%	x	3%
C=CCc1c(C)[nH]c(=S)c(C#N)c1C	35%	0%	-8%	-4%	-29%	3%	-1.4%	u
O=C(O)c1ccc(Nc2ncnc3ccccc23)cc1	10%	0%	x	x	x	0%	x	1%
CC(C)n1c(Nn2cnnc2)nc2ccccc21	3%	3%	4%	-1%	20%	-13%	-3.0%	u
O=C(COc1cccnc1[N+](=O)[O-])NCCc1ccc(F)cc1	-17%	0%	x	u	1%[46.1 µM]	6%	x	6%
Cc1ccc2c(c1)C(O)(CC(=O)/C=C/C=C/c1ccccc1)C(=O)N2 (stereo not given)	-28%	1%	-20%	-2%	11%	0%	-17%	-37%
CC(C)CC(COCc1ccc(C(F)(F)F)cc1)N1CCN(C(=O)c2ccc(C(F)(F)F)cc2)CCC1=O (stereo not given)	-9%	-22%	u	-3%	u	u	-7.4%	4%
Cc1cccc(-n2c(SCC(=O)NC3CCCC3)nnc2-c2ccoc2C)c1	-6%	-2%	12%	-10%	-20%	-9%	-2.2%	-7%
CCc1ccc(OC(=O)c2ccn(CC)n2)cc1	-11%	12%	0%	u	3%	26%	-0.9%	-58%
OC(COCCOc1ccc(Br)cc1)CN1CCCCC1 (stereo not given)	-4%	2%	-8%	0%	u	-19%	6.6%	7%
COc1ccccc1OCC(=O)NC1CCCCCCC1	1%	-11%	x	-1%	-16%	-9%	x	x
O=C(CCN1CCN(c2ccccc2)CC1)Nc1ccc(Cl)cc1	-3%	-9%	-3%	2%	-5%	-10%	6.1%	-5%
O=C(NCCc1ccccc1)c1ccccc1NC(=O)C1CCCO1 (stereo not given)	7%	-1%	x	u	u	4%	x	1%
O=C(c1cc2ccccc2oc1=O)N(Cc1cccc(Br)c1)C1CCS(=O)(=O)C1 (stereo not given)	2%	1%	x	1%[46.1 µM]	-22%[46.1 µM]	11%	x	-6%
Nc1c(Cl)cc(Cl)cc1C(=O)OCC(=O)NC1CC1	1%	-2%	10%	-9%	-4%	3%	-9.8%	-7%
C=CCS/C(=N\n1cnc2ccccc2c1=O)N1CCCCC1	-6%	3%	9%	-2%	u	31%[activator]	5.9%	-7%
CN(CC(=O)Nc1ccccc1Cl)C(=O)c1cccc(S(=O)(=O)N2CCN(c3ccc(F)cc3)CC2)c1	-4%	-9%	x	x	x	-16%	x	-47%
O=C(C1CCC(CNS(=O)(=O)c2cccc3cccnc23)CC1)N1CCCC1 (stereo not given)	11%	7%	-12%	-2%	1%&1%	-5%	-0.1%	0%
CCOC(=O)C(CC)(CCC(=O)O)c1csc(N)n1 (stereo not given)	12%	-8%	-6%	-2%	4%	13%	3.7%	-12%
CC(=O)Nc1ccc(S(=O)(=O)NCC2CCC(C(=O)NCCC(C)C)CC2)cc1 (stereo not given)	-14%	2%	3%	u	3%	-9%	2.7%	-2%
COc1ccc2oc(C(=O)OCC(=O)N(Cc3ccccc3)C(C)(C)C)c(C)c2c1	0%	x	x	u	-25%[46.1 µM]	-16%	x	23%
